Screening data as filed in PubChem BioAssay.
Vaccinia pol inh: vaccinia E9 polymerase processive synthesis inhibitors, primary screen, biochemical, absorbance | Vaccinia virus DNA polymerase (E9) processive complex | in vitro processive DNA synthesis, absorbance read-out; active compounds read low; some inactives read as strong as hits | normalized absorbance, % (test concentration not listed) | 46,000 tested, 0.94% active | AID 493162, 2011;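 active = replicate mean up to 90% and picked by the depositor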;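 note: 100% = median of the test wells of a plate; 100 nL library stock went into each well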
An asterisk follows results filed as active. An excerpt; the hit share may differ from the screen's.

SMILES	Vaccinia pol inh
CCN1C(=O)/C(=C\c2ccc(OCC(N)=O)c(OC)c2)SC1=S	90.9
Nc1c2c(nc3ccccc13)N(Cc1ccccc1)CC2	99.8
CC(=O)OC12CC3CC(C1)CC(C(=O)O)(C3)C2	98.7
COc1ccc(-n2c(-c3cccc(OC)c3)csc2=NCc2cccnc2)cc1	108.4
CC(=O)Nc1ccc(N=Cc2ccc(OC(=O)c3ccccc3Br)cc2O)cc1	81.5*
CC(Cc1ccccc1)[n+]1cc(N)on1 (stereo not given)	100.1
Oc1ccccc1C1CCCCC1c1ccccc1 (stereo not given)	99.9
CC(=O)N1CC=C2C(C#N)=C(N)C(C#N)(C#N)[C@H](c3ccc(F)cc3F)[C@H]2C1	99.2
O=C(/C=C/c1ccc(Cl)cc1)Nc1nccs1	100.7
CCOc1cccc2cc(C(N)=O)c(=NCc3ccccc3)oc12	99.8
Cn1cc(/C(N)=N/O)c(=O)n(Cc2ccccc2)c1=O	96.0
COc1ccc(CCNC2(Cc3ccccc3)CC(C)N(C)CC2C)cc1OC (stereo not given)	93.5
O=C(CSc1ccc(Br)cc1)N1CCCCC1	95.3
C1CCC(NC2=NCCCS2)CC1	103.5
C1=C(c2ccccn2)Oc2ccccc2O1	96.7
O=C(O)CCc1n[nH]c(=O)[nH]c1=O	108.4
COc1ccc2c(c1)C(=O)C(CC1(O)C(=O)N(C)c3ccccc31)CC2 (stereo not given)	94.8
N#Cc1nc(-c2ccc(Cl)cc2)oc1NC1CC1	98.9
CNC(=O)c1ccccc1Sc1ccccc1C(=O)NC	102.9
OC(CN1CCOCC1)(c1ccccc1)c1ccccc1	105.5
CC(=O)N(C)CP(=O)(O)CN1CCCC1=O	94.7
O=S(=O)(Cn1nc(Br)nc1Br)c1ccc(Cl)cc1	99.7
Clc1ccc2oc(-c3ccccn3)nc2c1	100.1
Cc1nc(-c2c(C(=O)NN)noc2C)cs1	99.2
CC(C)CNC(=O)c1cc(-c2cccs2)on1	97.7
Nc1nc(NC2CCCCNC2=O)n[nH]1 (stereo not given)	83.4
O=C(CN1C(=O)S/C(=C\c2ccc(O)cc2)C1=O)N1CCOCC1	100.1
O=C(Nc1ccccc1C(=O)Nc1ccccc1C(=O)O)c1ccccc1	100.0
O=S(=O)(NC1=NCCCCC1)c1ccc(Cl)cc1	101.1
O=C(OCC(=O)C12CC3CC(CC(C3)C1)C2)c1ccccc1	100.8
CCN1C(=O)/C(=C2\SC(=S)N(C3CCCC3)C2=O)c2cc(Br)ccc21	88.1
COc1ccc(CNC(=O)Cc2coc3cc(C)cc(C)c23)cc1	94.3
COc1ccc(-c2noc(=O)n2Cc2cccc(C)c2)cc1	102.7
COc1ccc(C2CCCN2C(=O)Nc2ccccc2)cc1OC (stereo not given)	95.5
O=C(Nc1ccccc1N1CCCCC1)c1ccco1	115.5
COC(=O)C1=C(C)NC(=O)NC1c1ccccc1 (stereo not given)	99.7
CCc1ccccc1NC(=O)C(C)Oc1ccccc1 (stereo not given)	97.5
CC1CCc2sc(NC(=O)C(C)C)c(C#N)c2C1 (stereo not given)	96.8
Brc1cc(/C=N/n2cnnc2)oc1Br	107.1
CCOc1cccc(NC(=O)c2ccc(S(=O)(=O)N3CCCC3)cc2)c1	110.5
CC(=O)NC(C)C(=O)OCc1ccc(Cl)cc1Cl (stereo not given)	102.5
CCOC(=O)n1c(=O)oc2cc(Cl)ccc21	100.2
CC1=C(C(=O)OC(C)(C)C)C2(C(=O)Nc3ccccc32)C(C#N)=C(N)O1 (stereo not given)	104.3
CCOC(=O)c1ccc(-n2c(C)cc(C=C3C(=O)NC(=S)NC3=O)c2C)cc1	100.5
N#Cc1ccc(CSc2ccc(Cl)cc2)cc1	99.9
O=C(O)CNC(=O)C(CS)Cc1ccccc1 (stereo not given)	100.8
Cc1cccc(NC(=O)C2(c3ccccc3)CCOCC2)c1	99.5
COc1ccccc1-n1nnnc1-c1ccc2ccccc2n1	98.6
CSC1=NC(C)(C)Cc2c(C)cccc21	99.6
CC1(C)CC(=O)c2cc(C(=O)NCCC3=CCCCC3)c(=O)n(-c3ccccc3)c2C1	99.8
COc1ccc(Cl)cc1NN	100.2
N#Cc1cccc(C#N)c1Oc1ccc(S(=O)(=O)NCc2ccco2)cc1	97.6
Cn1c(=O)oc2cc(S(=O)(=O)N3CCC(C(=O)NCCc4ccc(Cl)cc4)CC3)ccc21	101.3
CN1CCN(C(=S)SCC(=O)N2CCCc3ccccc32)CC1	100.8
COc1ccc(CNC(=O)CCn2c(=O)c3sccc3n(CC(=O)N3CCCCC3C)c2=O)cc1 (stereo not given)	95.2
COc1ccccc1N1CCN(Cc2cc(Cl)c(O)c3ncccc23)CC1	100.0
CCCOC(=O)CN1C(=O)/C(=C/c2ccccc2)SC1=S	85.7
N#CCCn1cc(Cl)c(=O)c(Cl)c1	102.1
Cn1c(=NC(=O)c2ccc(F)cc2)sc2ccccc21	100.4
CCN1C(=O)C(CC(=O)Nc2ccc(F)cc2)N(CCc2ccccc2)C1=S (stereo not given)	100.1

(next part)
SMILES	Vaccinia pol inh
Cc1cc(C)cc(NC(=S)N(CCCN2CCOCC2)C(C)c2cc3ccccc3o2)c1 (stereo not given)	107.9
CC(NC(=O)c1ccncc1)C(c1cccs1)N1CCN(Cc2ccccc2)CC1 (stereo not given)	100.6
CCN1C(=O)/C(=C\c2cccc3c2-c2ccccc2C3=O)OC1=S	100.3
O=C(COc1ccc(/C=c2/sc3nc4ccccc4n3c2=O)cc1)N1CCCC1	100.0
O=C(c1ccc(Cn2c(=O)[nH]c3ccsc3c2=O)cc1)N1CCCCC1	86.0
Cc1cccc(-n2c(C)cc(C(=S)N3CCOCC3)c2C)c1C	99.9
O=C(NCCCn1ccnc1)c1cc(C(=O)C2CCCCC2)c[nH]1	99.3
O=C1NCCCCC1NS(=O)(=O)c1ccc(Cl)cc1 (stereo not given)	99.0
CC(C)NC(=O)CC1Oc2ccc(Cl)cc2NC1=O (stereo not given)	104.4
Cc1ccc(C(=O)COC(=O)c2ccc(-n3cnnn3)cc2)c(C)c1 (tested in a mixture with another compound)	100.3
CC1CN=C(NCc2ccncc2)S1 (stereo not given)	100.0
CC(O)(CS(=O)(=O)Cc1ccc(Cl)cc1)C(=O)Nc1ccc(Cl)cc1 (stereo not given)	112.5
O=C(OCCN1CCCCC1)c1cccc(COc2ccc3ccccc3c2)c1	99.8
NC(=O)C1CCN(C(=O)c2n[nH]c(=O)c3ccccc23)CC1	84.8
Cn1cccc1CNCCc1ccc(F)cc1	107.2
O=C(CSc1ncnc2sc3c(c12)CCC3)c1ccc(F)cc1	101.4
CCCCC/C=C\C/C=C\C/C=C\C/C=C\CCCC(N)=O	99.0
CC(=O)OCC(=O)[C@@]1(O)CC[C@H]2C3CCC4=CC(=O)CCC4(C)[C@@]3(F)[C@@H](O)CC21C (stereo not given in full)	99.4
S=C(Nc1ccc2nsnc2c1)N1CCCC1	99.0
CC(NS(C)(=O)=O)C(c1cccs1)N1CCOCC1 (stereo not given)	99.4

Pulled by compound from the entries so far (14):
SMILES	Vaccinia pol inh
CCCCC/C=C\C/C=C\C/C=C\C/C=C\CCCC(N)=O	99.0
O=C(OCCN1CCCCC1)c1cccc(COc2ccc3ccccc3c2)c1	99.8
O=C(NCCCn1ccnc1)c1cc(C(=O)C2CCCCC2)c[nH]1	99.3
S=C(Nc1ccc2nsnc2c1)N1CCCC1	99.0
O=C(CSc1ncnc2sc3c(c12)CCC3)c1ccc(F)cc1	101.4
O=C(COc1ccc(/C=c2/sc3nc4ccccc4n3c2=O)cc1)N1CCCC1	100.0
O=C1NCCCCC1NS(=O)(=O)c1ccc(Cl)cc1 (stereo not given)	99.0
CC(C)NC(=O)CC1Oc2ccc(Cl)cc2NC1=O (stereo not given)	104.4
NC(=O)C1CCN(C(=O)c2n[nH]c(=O)c3ccccc23)CC1	84.8
CCN1C(=O)/C(=C\c2cccc3c2-c2ccccc2C3=O)OC1=S	100.3
O=C(c1ccc(Cn2c(=O)[nH]c3ccsc3c2=O)cc1)N1CCCCC1	86.0
CC(O)(CS(=O)(=O)Cc1ccc(Cl)cc1)C(=O)Nc1ccc(Cl)cc1 (stereo not given)	112.5
CC(=O)OCC(=O)[C@@]1(O)CC[C@H]2C3CCC4=CC(=O)CCC4(C)[C@@]3(F)[C@@H](O)CC21C (stereo not given in full)	99.4
CC(NC(=O)c1ccncc1)C(c1cccs1)N1CCN(Cc2ccccc2)CC1 (stereo not given)	100.6

More entries follow:
SMILES	Vaccinia pol inh
CS(=O)(=O)N1CCSC1c1ccco1 (stereo not given)	95.4
COc1ccc(S(=O)(=O)NCCN2CCOCC2)cc1OC	98.5
CN(C(=O)c1cc2c(s1)-c1ccc(Cl)cc1SC2)c1cccc(Cl)c1	98.3
CCC(=O)NC(Nc1cccnc1Cl)(C(F)(F)F)C(F)(F)F	100.2
CCOC(=O)N1CCC(NC(=O)Nc2ccc(F)cc2)CC1	99.9
COC(=O)c1ccccc1NC(=O)c1ccccc1Br	98.6
O=C(C1CCCN(CC2CC3C=CC2C3)C1)N1CCC(Cc2ccccc2)CC1 (stereo not given)	100.8
COc1cccc2c(Cl)c(CCCl)c(C)nc12	103.3
COc1ccc(S(=O)(=O)NC(CC(=O)N2CCCCC2)C(C)C)cc1 (stereo not given)	98.7
O=S1(=O)CCC(NC(=S)N2CCCCC2)C1 (stereo not given)	99.8
Nn1c(CSc2ccccn2)nc2ccccc2c1=O	100.0
O=C(NCc1cccnc1)C1CCC(c2ccc(Cl)cc2)CC1 (stereo not given)	103.3
C=CCn1c(O)c(C#N)c(C)cc1=O	100.0
CCOC(=O)c1cc(C)n(-c2ccc(C)c(C)c2)c1C	106.9
O=C(O)CC(c1ccco1)N1Cc2ccccc2C1=O (stereo not given)	96.0
COc1ccc(-c2cc(=O)c3cc(OC(=O)Cc4ccccc4)ccc3o2)cc1	100.1
Cc1ccc(/C=C2/SC(=O)NC2=S)o1	74.6*
NC(=S)Nc1ccccc1OC(F)(F)F	100.3
CC(C(=O)N1CCCCC1)n1c2ccccc2c2cnn(C)c(=O)c21 (stereo not given)	98.6
O=C(CC1C(=O)N(c2ccccc2)C(=S)N1CCc1ccc(F)cc1)Nc1ccc(F)cc1 (stereo not given)	100.5
COC(=O)C1COc2ccccc2O1 (stereo not given)	99.3
CO/N=C(/C(=O)NC1C(=O)N2C(C(=O)O)=C(COC(N)=O)CSC12)c1ccco1 (stereo not given)	95.1
COc1cc(C(=O)/C=C/Nc2ccccc2C(N)=O)cc(OC)c1OC	100.5
CCCNC(=O)c1ccc2c(c1)N(CC)CCS2	102.8
CCOC(=O)CCN1C(=O)c2ccccc2C1=O	93.1
CCC(Sc1nnc2c3ccccc3n(C)c2n1)C(=O)Nc1ccc(S(N)(=O)=O)cc1 (stereo not given)	100.0
O=c1oc2cc(OCc3ccc(F)cc3F)ccc2cc1-c1ccccn1	97.4
COc1cc(C=Nc2ccc(NC(C)=O)cc2)ccc1OC(=O)c1cccs1	99.5
O=C1OCC(CO)N1c1ccccc1 (stereo not given)	96.5
COc1ccc(/C=N/c2nnc(-c3ccccc3)c(-c3ccccc3)n2)c(C(=O)O)c1OC	101.0
Cc1cc(C)c2c(n1)sc1c(N3CCN(C)CC3)ncnc12	75.6
COc1ccc(C(N)=NC#N)cc1	109.8
CCN(CC)C(=O)Cc1nc(-c2ccc(OC)cc2)no1	99.4
Cc1ccc(S(=O)(=O)n2nc(C)cc2C)cc1	98.2
CCN(CC)S(=O)(=O)c1cc(-c2nnc(-c3ccc(C)cc3)o2)ccc1C	99.8
CN1/C(=C\C=C2\C(=O)Oc3ccccc3C2=O)C(C)(C)c2ccccc21	100.3
Cc1nn(-c2ccccc2)c2sc(C#N)c(N)c12	79.9*
Cc1c(C#N)c2nc3ccccc3n2c(=O)/c1=C\Nc1cccc(NC(=O)c2ccccc2)c1	99.9
CCn1c(C2CC(=O)N(c3ccccc3)C2)nc2ccccc21 (stereo not given)	106.9
COc1ccc(/C=C2/CN(C)C/C(=C\c3ccc(OC)c(OC)c3)C2=O)cc1OC	99.8
Cc1[nH]c2cc3c(C(F)(F)F)cc(=O)[nH]c3cc2c1C	99.7
COc1cccc(/C(O)=C/c2nc3ccc(C(F)(F)F)cc3[nH]c2=O)c1	93.1
Cc1nc(C)c(-c2ccnc(C34CC5CC(CC(C5)C3)C4)n2)o1	100.7
Cc1cccc(N2CCN(CCCNc3nnc4c5ccccc5n(C)c4n3)CC2C)c1 (stereo not given)	94.1
O=C(c1cccc(Cl)c1)N(Cc1ccccc1)Cc1ccccc1	100.8
COc1ccc2oc(=O)cc(CN3CCN(c4ncccn4)CC3)c2c1	104.1
CCc1ccc(NC(=O)CSc2nncn3c2cc2occc23)cc1	102.3
c1ccc2sc(CCc3nc4ccccc4s3)nc2c1	98.5
COc1cc(OC)c2c3c(c(=O)oc2c1)CCCC3	100.9
COC(=O)CN1C(C)=Nc2ccc(Br)cc2C1c1ccccc1 (stereo not given)	100.8
N#CC(C#N)=C1C=C(c2ccccc2)Oc2ccccc21	96.9
O=C(Nc1cccnc1)c1cc2ccccc2oc1=O	100.2
c1c2c(cc3sc(N4CCOCC4)nc13)OCCO2	98.3
CC(=O)Nc1ccc(S(=O)(=O)N2CCCCCC2)cc1	107.3
Nc1nnc(C2CC2)s1	100.1
O=C(CCCN1CCOCC1)c1ccc(F)cc1	92.8
O=C(Nc1cccnc1)C(=O)c1c(O)[nH]c2ccccc12	100.8
NC(N)=NC(N)=Nc1cc(-c2cccs2)[nH]n1	108.9
O=C(CSc1nc(-c2ccccc2)cc(=O)[nH]1)c1c[nH]c2ccccc12	100.8
O=C(Nc1ccc(OCc2ccccc2)cc1)Oc1ccccc1N1CCCCC1	86.3

Continued:
SMILES	Vaccinia pol inh
O=C(COc1ccccc1)N(c1nccs1)C1CCCCC1	97.2
C=CCn1c(-c2cccnc2)nn(C(=O)c2cc(OC)c(OC)c(OC)c2)c1=S	100.3
COc1ccc(Br)cc1S(=O)(=O)N1CCN(Cc2ccc3c(c2)OCO3)CC1	98.1
Cc1cc(OC(=O)N(C)C)cc(=O)n1C	106.0
O=S(=O)(c1ccc(NC(=S)Nc2ccc3c(c2)OCO3)cc1)N1CCCCC1	105.7
COC(=O)CNC(=O)c1cc(-c2ccc(F)cc2)nc2ccccc12	102.7
Cc1ccc(Cn2ccn(Cc3ccccc3)c(=O)c2=O)cc1	104.1
N#Cc1c(NC(=O)C2=COCCO2)sc2c1CCCC2	82.6
